Screening results (PubChem BioAssay)
Cruzain Triton = inhibitors of Trypanosoma cruzi cruzain with detergent | P25779 | purified cruzain, Z-FR-AMC fluorescence, 0.01% Triton | Potency, µM, without a hit: max response, negative = inhibition, most hits filed as inhibitors | 200,000 tested, 0.43% active;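 also: plate controls were neutral wells for no effect and buffer without enzyme for full effect; nearly all actives have a fitted effect of over 40% in size; top concentration of the series not given in the record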
Target sequence (P25779 123-467 limits assumed): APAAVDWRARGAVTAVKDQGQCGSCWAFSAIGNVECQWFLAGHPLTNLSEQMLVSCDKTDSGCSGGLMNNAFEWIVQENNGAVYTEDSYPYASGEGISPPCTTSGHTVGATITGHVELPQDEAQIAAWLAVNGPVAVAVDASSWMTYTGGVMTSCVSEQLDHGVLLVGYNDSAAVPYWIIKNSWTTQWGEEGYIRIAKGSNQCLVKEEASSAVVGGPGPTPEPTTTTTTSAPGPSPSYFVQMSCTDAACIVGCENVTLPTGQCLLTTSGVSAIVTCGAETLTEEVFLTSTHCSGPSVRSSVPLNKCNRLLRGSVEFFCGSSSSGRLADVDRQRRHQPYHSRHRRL
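Sodium acetate buffer (100 mM, pH 5.5) containing 5 mM DTT and 0.01% Triton X-100 hosted 1.5 nM cruzain and test compound for 15 min at room temperature. Cleavage of 2 uM Z-FR-AMC was then tracked by fluorescence.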
Cruzain inh noDet = blocks cruzain activity in detergent-free assay. purified cruzain, Z-FR-AMC fluorescence, no detergent. P25779. Potency, µM, inactives show max response, negative = inhibition, hits mostly inhibitors. AID 1476. 200,000 tested, 2.3% active;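 also: plate controls were enzyme without inhibitor for no effect and buffer without enzyme for full effect; nearly all actives have a fitted effect of over 40% in size; top concentration of the series not given in the record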
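Purified cruzain at 1.5 nM, pre-incubated 15 min with compound at room temperature in 100 mM sodium acetate pH 5.5, 5 mM DTT, 0.00005% Triton X-100. Reaction started with 2 uM Z-FR-AMC; AMC fluorescence increase over 60 s gives rate.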
SARS PLpro yeast = blocks SARS-CoV papain-like protease in a yeast assay; AID 485353; Potency, µM (series often up to 32.9 µM), for inactives: at the highest dose activity, positive = growth rescue; 330,000 tested, 0.19% active; S. cerevisiae expressing SARS-CoV PLpro, growth rescue; control for the full effect not named in the record; active means well fitted rising curve with a large enough effect; inconclusive means small, poorly fitted or top-dose-only effect; inactive means no such curve, though single readings can be large or run the other way; also: 0% is about no effect; nearly all actives have a fitted effect of over 55% in size; growth read by luminescence after 48 h
LASV entry inh = Lassa virus entry inhibition. Lassa virus pseudotype entry inhibition, cell reporter; control for the full effect not named in the record. Potency, µM (series often up to 37.9 µM), without a hit: at the highest dose activity change, negative = inhibition, usual class: inhibitors. 300,000 tested, 1.2% active. AID 540256; active means well fitted inhibition curve with a large enough effect; inconclusive means small, poorly fitted or top-dose-only effect, or effect the other way; inactive means flat fitted curve, though single readings scatter; tested in HEK293 cells; also: % is scaled to controls: 0 for no effect and ±100 for the full control effect; nearly all actives have a fitted effect of over 50% in size; luciferase read-out
StopGo reporter = FMDV 2A StopGo reporter, luciferase signal; 410,000 tested, 1.2% active; AID 1159524; Potency, µM (top dose mostly 57.9 µM), without a hit: at the top dose signal change, negative = less light; human cells with a luciferase reporter of 2A StopGo recoding; control for the full effect not named in the record; active = well fitted falling curve with a large enough effect; inconclusive = small, poorly fitted or top-dose-only effect; inactive = no such curve, though single readings can be large or run the other way; tested in HEK293T cells; also: % is scaled to controls: 0 for no effect and ±100 for the full control effect; nearly all actives have a fitted effect of over 45% in size; luciferase light after 4 h
RE007 growth inh = less growth of the S. pombe RE007 Vpr strain. S. pombe RE007 Vpr strain, BacTiter-Glo ATP luminescence, 24 h; control for the full effect not named in the record. 360,000 tested, 0.21% active. Potency, µM (titrated, usually from 92.2 µM), without a hit: at the highest dose activity change, negative = less growth; active = well fitted falling curve with a large enough effect; inconclusive = small, poorly fitted or top-dose-only effect; inactive = no such curve, though single readings can be large or run the other way;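 also: % is scaled to controls: 0 for no effect and ±100 for the full control effect; nearly all actives have a fitted effect of over 50% in size; the assay follows cell death caused by Vpr and the record does not say whether a fall means rescue or toxicity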
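Fission yeast strain RE007, carrying one chromosomally integrated HIV-1 vpr copy, was seeded at OD 0.01 in PMG+AL medium with 23 nL pinned compound. After 24 h at 30 °C and 99% humidity, viability was read by BacTiter-Glo luminescence.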
Marburg entry inh = Marburg virus entry inhibition; Potency, µM (series often up to 37.8 µM), for the others: at the top dose activity change, negative = inhibition, usual class: inhibitors; 300,000 tested, 1.8% active; Marburg virus pseudotyped entry inhibition, cell reporter; control for the full effect not named in the record; about a third of the inactives were read at about 46 µM; AID 540276; active = well fitted inhibition curve with a large enough effect; inconclusive = small, poorly fitted or top-dose-only effect, or effect the other way; inactive = flat fitted curve, though single readings scatter; tested in HEK293 cells; about a fifth of its hits are not listed in these tables; also: % is scaled to controls: 0 for no effect and ±100 for the full control effect; luciferase read-out
NS1 inh = inhibitors of influenza NS1 protein function | AID 2326 | S. cerevisiae slowed by influenza A NS1, growth recovery by OD600 | Potency, µM (highest dose often 46.1 µM), for inactives: top-dose activity, positive = more growth | 270,000 tested, 0.4% active; active means well fitted rising curve with a large enough effect; inconclusive means small, poorly fitted or top-dose-only effect; inactive means no such curve, though single readings can be large or run the other way; also: nearly all actives have a fitted effect of over 50% in size
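Growth recovery, yeast-based: influenza A NS1 expressed in S. cerevisiae causes slow growth, and suppressors are detected by OD600. The parent strain without NS1 is used as positive control.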
Starred values were filed as active, the others as inactive; ? = inconclusive; / = not tested or not shown; & = joins results of further samples; [ ] = remark or other dose. Unless noted, calls follow the shape of the dose curve; as a rule, active = well fitted curve in the direction sought with a large enough effect; inconclusive = small, poorly fitted or top-dose-only effect, or another doubt; inactive = no such curve, though single readings can be large; an effect the other way counts as inactive or inconclusive. Potency is read from the fitted curve at half-maximal effect.

SMILES	Cruzain Triton	Cruzain inh noDet	SARS PLpro yeast	LASV entry inh	StopGo reporter	RE007 growth inh	Marburg entry inh	NS1 inh
COc1ccc(-c2nc3n(n2)C(c2ccccc2OC)C(C(=O)Nc2cccnc2)=C(C)N3)cc1 (stereo not given)	-5.9%	?	/	?	-26%	/	?	/
CCOC1CCCC(n2cnc3c(=S)nc[nH]c32)O1 (stereo not given)	/	/	/	-22%[46.1 µM]	-15%	9%	10%[46.1 µM]	/
COCCNC(=O)c1ccc(Cn2c(SCC(N)=O)nc3ccccc3c2=O)cc1	-2.8%	6%	/	20%[46.1 µM]	0%	/	/	/
CC(=O)c1ccc(S(=O)(=O)N(CCCO)Cc2cc3cc4c(cc3[nH]c2=O)OCCO4)cc1	/	/	1%	4%	3%	-7%	-3%	2%
c1ccc2[nH]c(SCc3ccc(-c4nnco4)cc3)nc2c1	1.0%	1%	5%	?	2%	3%	?	-12%
CC(=O)Nc1cccc(-n2nnc(SCC(N)=O)n2)c1	/	/	-2%	/	-4%	-9%	/	-1%
Cc1ccc2c(C)nc(Nc3ncc4c(n3)CCCC4=O)nc2c1	/	/	/	19%	-9%	-3%[3.69 µM]	2%	4%
CC1(C(=O)Nc2ncc(Cc3ccc(Br)cc3)s2)Cc2ccccc2C(=O)O1 (stereo not given)	-1.4%	-63%	/	?	?	/	?	/
C[C@@H]1C=C(C(=O)O)O[C@H](OCc2ccc(CO)cc2)C1	/	/	1%	/	3%	-6%	/	3%
O=C(N/N=C/c1coc2ccccc2c1=O)c1ccc(Cl)cc1	/	/	11%	1%	-10%	-16%	-5%	-12%

Only LASV entry inh (3 entries from above):
compound | LASV entry inh
CCOC1CCCC(n2cnc3c(=S)nc[nH]c32)O1 (stereo not given) | -22%[46.1 µM]
c1ccc2[nH]c(SCc3ccc(-c4nnco4)cc3)nc2c1 | ?
COc1ccc(-c2nc3n(n2)C(c2ccccc2OC)C(C(=O)Nc2cccnc2)=C(C)N3)cc1 (stereo not given) | ?

(continued)
SMILES	Cruzain Triton	Cruzain inh noDet	SARS PLpro yeast	LASV entry inh	StopGo reporter	RE007 growth inh	Marburg entry inh	NS1 inh
O=C(Nc1ccccc1Sc1ccccc1)C1CCCO1 (stereo not given)	-1.6%	-1%	-4%	30%	/	13%	-16%	-6%
O=c1cc2c(nn1Cc1cccc([N+](=O)[O-])c1)-c1ccccc1CC2	/	/	-2%	/	-7%	29%	/	3%
Cc1c(C=O)c2ccccn2c1C(=O)c1ccccc1	-4.9%	-17%	-8%	-7%	-14%	-27%	-12%[46.1 µM]	-66%
O=C(Nc1ncc(C(F)(F)F)cc1Cl)c1ccc(S(=O)(=O)N2CCOCC2)cc1	/	/	-2%	1%[46.1 µM]	2%	16%	1%[46.1 µM]	/
O=C(Nc1cc2c3c(c1)CC(=O)N3CCC2)c1ccccc1C(F)(F)F	/	/	0%	?	2%	10%	4%	/
CC(=O)Nc1ccccc1OC(C)C(=O)N1CCC(C)CC1 (stereo not given)	/	/	1%	-2%[46.1 µM]	-28%	-3%	13%[46.1 µM]	/
N=C(N)SCCc1ccc(CCSC(=N)N)cc1	-4.8%	4%	/	?	/	/	?	-36%
Cc1nc(-c2ccccc2)sc1C(=O)CSc1ccc(Cl)cc1	-6.8%	5%	-3%	-1%	-1%	11%	?	3%
Cc1ccc(-n2c(Cc3ccccc3)n[nH]c2=S)c(C)c1	/	/	0%	/	-3%	-23%	-1%[46.1 µM]	6%
COc1ccc(CNC(=O)Cc2c(C)c3c(O)cc(C)cc3oc2=O)cc1	0.0%	-4%	/	-1%[46.1 µM]	-3%	/	?	/
COc1ccc(C(=O)N2CCOC2CNC(=O)C(=O)NCc2ccccc2Cl)cc1 (stereo not given)	/	/	-2%	13%	5%	-15%	11%	-2%
COc1ccc(C(=O)N2CCCC(C(=O)c3ccccc3OC)C2)cc1OC (stereo not given)	/	/	-2%	/	25%	5%	/	-3%
COc1ccccc1CNC(=O)C1CCCN(S(=O)(=O)c2ccc3c(c2)C(C)(C)C(=O)N3C)C1 (stereo not given)	/	/	4%	/	?	-17%	/	-6%
CC(=O)Nc1ccc(NC(=O)C(C)OC(=O)c2cc(S(=O)(=O)N3CCOCC3)ccc2Cl)cc1 (stereo not given)	/	/	-6%	4%	-17%	-13%	-1%	/
Cc1ccc(-c2cc(C(=O)N3CCN(c4ccc(F)cc4)CC3)c3ccccc3n2)o1	-6.3%	8%	-17%	?	-1%	-13%	?	-63%
Cc1cc(Nc2ccc(F)cc2F)n2nc(C)nc2n1	-3.3%	3%	7%	/	-17%	-3%	/	13µM*
O=C(CN1C(=O)c2cccnc2Oc2ccc(Cl)cc21)NCCc1ccccc1	/	/	1%	12%[46.1 µM]	2%&28%	47%	/	-6%
Cc1cc(C(=O)COC(=O)c2cc(Cl)ccc2N)c(C)n1Cc1ccco1	-9.5%	25µM*	15%	?	39%[activator]	-7%	?	22%
COc1ccc(-c2nnn3c2nc(NCc2ccccc2)c2ccccc23)cc1	-3.1%	-2%	0%	0%[46.1 µM]	-10%&-12%	2%	?	/
COc1ccc(CC(=O)Nc2cc(Cl)ccc2N2CCCC2)cc1	/	/	0%	-15%	-9%	-15%	?	5%

2 of these compounds, reformatted:
Second line of a record – Cruzain Triton, Cruzain inh noDet, SARS PLpro yeast, LASV entry inh, StopGo reporter, RE007 growth inh, Marburg entry inh, NS1 inh
COc1ccc(C(=O)N2CCCC(C(=O)c3ccccc3OC)C2)cc1OC (stereo not given)
  /, /, -2%, /, 25%, 5%, /, -3%
Cc1cc(C(=O)COC(=O)c2cc(Cl)ccc2N)c(C)n1Cc1ccco1
  -9.5%, 25µM*, 15%, ?, 39%[activator], -7%, ?, 22%

The results go on:
SMILES	Cruzain Triton	Cruzain inh noDet	SARS PLpro yeast	LASV entry inh	StopGo reporter	RE007 growth inh	Marburg entry inh	NS1 inh
Cc1ccc(NC(=S)N(CCCN(C)C)Cc2cc3cc4c(cc3[nH]c2=O)OCO4)c(C)c1	/	/	1%	-29%	-13%	17%	13%[46.1 µM]	-1%
COC(=O)c1ccc(C2Nc3ccccc3NC3=C2C(=O)CC(C)(C)C3)cc1 (stereo not given)	/	/	1%	/	8%	5%	/	5%
CCOC(=O)c1cc2c(=O)n3ccccc3nc2n(CC2CCCO2)c1=NC(=O)c1ccc(OC)cc1OC (stereo not given)	-28%	0%	/	-20%[46.1 µM]	20%	/	?	/
Cc1cccc(/C(N)=N/OC(=O)c2ccccc2Cl)c1	/	/	1%	?	?	-9%	?	/
Cc1ccc(N=Cc2ccccc2O)cc1Cl	/	/	/	15%	15%	-14%	?	/
COc1ccc(OC)c(S(=O)(=O)NCCC2=CCCCC2)c1	-4.8%	-8%	-15%	?	111%[activator]	-4%	10%	-37%
O=C(NCCc1ccc(Cl)cc1)c1ccc2c(c1)OCCO2	/	/	1%	/	3%	53%	/	0%
COc1ccc(-c2nc(C(F)(F)F)c(OC)o2)cc1OC	-7.0%	2%	7%	1%	-19%	-8%	21%	3%
O=C(Nc1cccc(S(=O)(=O)NC2=NCCCCC2)c1)c1cc(-c2ccco2)nc2ccccc12	/	/	0%	?	-17%	-15%	-19%	0%
O=C(O)c1nc(-c2ccccc2)n(-c2ccccc2)n1	3.1%	-9%	17%	8%	-19%	3%	?	0%
Cc1cc(-c2nn(-c3ccccc3F)cc2CN2CCCC(C(N)=O)C2)c(C)s1 (stereo not given)	/	/	0%	-3%	-4%	-5%	6%[46.1 µM]	-1%
O=C(NCCN1C(=O)C2C3C=CC(C3)C2C1=O)N1CCOCC1 (stereo not given)	0.1%	-13%	-1%	-6%	-9%	-1%	8%	8%
O=C(COc1ccc(-c2ccccc2)cc1)N1CCCC1	/	/	1%	/	71%[activator]	13%	/	-6%
CCCc1c(C)nn(-c2ncccc2[N+](=O)[O-])c1C	/	/	-1%	8%[46.1 µM]	-29%	7%	4%[46.1 µM]	-5%
CCCc1nc2ccccc2c(=O)n1-c1ccccc1OC	2.4%	0%	6%	?	-16%	23%	?	4%
Cc1cccc(NC(=O)C2CCC(CNS(=O)(=O)c3ccc(Br)s3)CC2)c1 (stereo not given)	-5.1%	-8%	/	15%[46.1 µM]	-13%	/	?	/
COC(=O)Nc1nnc(SCc2ccc(C)cc2)s1	0.9%	6%	-14%	34%	0%	2%	4%	-51%
COc1ccc(/C=N/N2CCN(c3ccccc3)CC2)cc1Br	/	/	4%	/	3%	10%	/	7%

Reformatted field by field: entries from further up
O=C(Nc1cccc(S(=O)(=O)NC2=NCCCCC2)c1)c1cc(-c2ccco2)nc2ccccc12
  Cruzain Triton = /
  Cruzain inh noDet = /
  SARS PLpro yeast = 0%
  LASV entry inh = ?
  StopGo reporter = -17%
  RE007 growth inh = -15%
  Marburg entry inh = -19%
  NS1 inh = 0%

CC(=O)Nc1ccccc1OC(C)C(=O)N1CCC(C)CC1 (stereo not given)
  Cruzain Triton = /
  Cruzain inh noDet = /
  SARS PLpro yeast = 1%
  LASV entry inh = -2%[46.1 µM]
  StopGo reporter = -28%
  RE007 growth inh = -3%
  Marburg entry inh = 13%[46.1 µM]
  NS1 inh = /
